# Source: PubChem BioAssay
# MARV entry inh – blocks Marburg virus binding to or entry into cells. 300,000 tested, 1.8% active. Potency, µM (top dose mostly 37.8 µM), inactives show at the highest dose activity change, negative = inhibition, actives largely listed as inhibitors. Marburg virus pseudotyped entry inhibition, cell reporter; control for the full effect not named in the record; about a third of the inactives were read at about 46 µM; active = well fitted inhibition curve with a large enough effect; inconclusive = small, poorly fitted or top-dose-only effect, or effect the other way; inactive = flat fitted curve, though single readings scatter; tested in HEK293 cells; about a fifth of its hits are not listed in these tables; further: on the % scale 0 is the no-effect control and ±100 the full control effect; luciferase read-out
# Cruzain inh noDet – cruzain (T. cruzi) inhibition without detergent; purified cruzain, Z-FR-AMC fluorescence, no detergent; P25779; Potency, µM, without a hit: max response, negative = inhibition, usual class: inhibitors; 200,000 tested, 2.3% active; active means well fitted curve in the direction sought with a large enough effect; inconclusive means small, poorly fitted or top-dose-only effect, or another doubt; inactive means no such curve, though single readings can be large; an effect the other way counts as inactive or inconclusive;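 further: plate controls were enzyme without inhibitor for no effect and buffer without enzyme for full effect; nearly all actives have a fitted effect of over 40% in size; top concentration of the series not given in the record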
# Target sequence (P25779 123-467 limits assumed): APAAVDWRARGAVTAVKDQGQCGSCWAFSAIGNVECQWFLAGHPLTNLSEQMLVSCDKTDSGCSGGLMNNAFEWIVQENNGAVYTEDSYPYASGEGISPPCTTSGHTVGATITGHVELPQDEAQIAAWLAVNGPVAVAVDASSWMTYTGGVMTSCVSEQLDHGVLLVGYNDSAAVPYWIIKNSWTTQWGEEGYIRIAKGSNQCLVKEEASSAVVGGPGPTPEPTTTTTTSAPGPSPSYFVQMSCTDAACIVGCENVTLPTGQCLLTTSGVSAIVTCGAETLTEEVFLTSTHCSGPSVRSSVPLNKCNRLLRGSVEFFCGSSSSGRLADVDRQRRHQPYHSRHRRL
#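 Detergent-free condition (0.00005% Triton X-100) in acetate buffer pH 5.5 with DTT. 1.5 nM enzyme and compound were pre-mixed 15 min, then 2 uM Z-FR-AMC substrate added; reaction progress from fluorescence change between first and third reads (60 s).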
# NS1 function inh – influenza NS1 inhibition. S. cerevisiae slowed by influenza A NS1, growth recovery by OD600. Potency, µM (series often up to 46.1 µM), for the others: at the highest dose activity, positive = more growth. 270,000 tested, 0.4% active; further: actives are rising curves; nearly all actives have a fitted effect of over 50% in size
#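 In this qHTS, NS1 from influenza A is expressed in budding yeast, where it slows growth. Cells are switched from glucose to 2% galactose medium (pH 6.0, -URA), treated with compound, and growth recovery is read at OD600.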
# Lassa entry inh – Lassa virus entry inhibition | AID 540256 | Lassa virus pseudotype entry inhibition, cell reporter; control for the full effect not named in the record | 300,000 tested, 1.2% active | Potency, µM (titrated, usually from 37.9 µM), for inactives: at the top dose activity change, negative = inhibition, most hits filed as inhibitors; active means well fitted inhibition curve with a large enough effect; inconclusive means small, poorly fitted or top-dose-only effect, or effect the other way; inactive means flat fitted curve, though single readings scatter; tested in HEK293 cells; further: on the % scale 0 is the no-effect control and ±100 the full control effect; nearly all actives have a fitted effect of over 50% in size; luciferase read-out
# RE007 growth inh – less growth of the S. pombe RE007 Vpr strain; S. pombe RE007 Vpr strain, BacTiter-Glo ATP luminescence, 24 h; control for the full effect not named in the record; Potency, µM (doses to about 92.2 µM), for the others: at the top dose activity change, negative = less growth; 360,000 tested, 0.21% active; AID 651644; active = well fitted falling curve with a large enough effect; inconclusive = small, poorly fitted or top-dose-only effect; inactive = no such curve, though single readings can be large or run the other way;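 further: on the % scale 0 is the no-effect control and ±100 the full control effect; nearly all actives have a fitted effect of over 50% in size; the assay follows cell death caused by Vpr and the record does not say whether a fall means rescue or toxicity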
#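 Fission yeast strain RE007, carrying one chromosomally integrated HIV-1 vpr copy, was seeded at OD 0.01 in PMG+AL medium with 23 nL pinned compound. After 24 h at 30 °C and 99% humidity, viability was read by BacTiter-Glo luminescence.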
# SARS PLpro yeast – blocks SARS-CoV papain-like protease in a yeast assay. S. cerevisiae expressing SARS-CoV PLpro, growth rescue; control for the full effect not named in the record. Potency, µM (series often up to 32.9 µM), inactives show top-dose activity, positive = growth rescue. 330,000 tested, 0.19% active; further: 0% is about no effect; nearly all actives have a fitted effect of over 55% in size; growth read by luminescence after 48 h
# Cruzain Triton – blocks cruzain activity in presence of Triton detergent | P25779 | purified cruzain, Z-FR-AMC fluorescence, 0.01% Triton | Potency, µM, for the others: max response, negative = inhibition, hits mostly inhibitors | 200,000 tested, 0.43% active | AID 1478; active means well fitted curve in the direction sought with a large enough effect; inconclusive means small, poorly fitted or top-dose-only effect, or another doubt; inactive means no such curve, though single readings can be large; an effect the other way counts as inactive or inconclusive;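 further: plate controls were neutral wells for no effect and buffer without enzyme for full effect; nearly all actives have a fitted effect of over 40% in size; top concentration of the series not given in the record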
#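 Z-FR-AMC hydrolysis (2 uM substrate) by cruzain (1.5 nM) monitored kinetically at ex 360/em 450 nm after 15 min room-temperature compound exposure; 0.01% Triton X-100, pH 5.5, 5 mM DTT.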
# 2A StopGo – FMDV 2A StopGo reporter, luciferase signal; Potency, µM (series often up to 57.9 µM), inactives show at the highest dose signal change, negative = less light; 410,000 tested, 1.2% active; AID 1159524; human cells with a luciferase reporter of 2A StopGo recoding; control for the full effect not named in the record; active = well fitted falling curve with a large enough effect; inconclusive = small, poorly fitted or top-dose-only effect; inactive = no such curve, though single readings can be large or run the other way; tested in HEK293T cells; further: on the % scale 0 is the no-effect control and ±100 the full control effect; nearly all actives have a fitted effect of over 45% in size; luciferase light after 4 h
# The depositor's hits bear a star; u = inconclusive; x = no result given; & = joins results of further samples; [ ] = another dose, or the depositor's remark. Unless noted, the call rests on the fitted dose curve; in most records, active means well fitted rising curve with a large enough effect; inconclusive means small, poorly fitted or top-dose-only effect; inactive means no such curve, though single readings can be large or run the other way. Potency means the concentration at half of the fitted maximal effect.
SMILES,MARV entry inh,Cruzain inh noDet,NS1 function inh,Lassa entry inh,RE007 growth inh,SARS PLpro yeast,Cruzain Triton,2A StopGo
CCc1ccc(CCC(=O)Nc2ccc(Cl)cc2)o1,x,x,-33%,x,-16%,-13%,x,0%
CCc1nc(N(CC)CC)c2oc3ccccc3c2n1,-18%,0%,-163%,-9%,6%,0%,-11%,u
COC(CN(C(=O)CCl)C(C(=O)NC1CCCCC1)c1ccc(C)cc1)OC (stereo not given),u,-3%,1%,-11%,-15%,-3%,-2.9%,u
Cc1nc2ccc(NC(=O)Cc3c(F)cccc3Cl)cc2s1,x,x,4µM*,x,1%,0%,x,30%[activator]
COc1ccc2c(c1)OC(=O)CC2c1cc(OC)c(OC)c(OC)c1 (stereo not given),x,20%,x,x,5%,12%,-1.0%,-19%
O=C(CSc1ccc2nnc(-c3ccc(F)cc3)n2n1)NCC1CCCO1 (stereo not given),u,-11%,5%,-5%,-7%,0%,3.7%,19%
COc1ccc(Nc2nc(N)nc(CSc3nccn3C)n2)cc1,x,x,3%,x,0%,-1%,x,52%[activator]
CCOC(=O)c1ccc(NC(=S)NN)cc1,23%[46.1 µM],x,x,-5%[46.1 µM],-4%,12%,x,10%
O=C(Nc1ccc(Cl)cc1)Nc1ccccc1CC[N+](=O)[O-],-23%[46.1 µM],x,x,u,21%,0%,x,28%
O=C(Nc1ccccc1)C1=C[C@@H](C2CCCCC2)C[C@@H](OCc2ccc(CO)cc2)O1,x,x,16%,x,-15%,-2%,x,3%
COc1cccc(-c2nc(COc3ccc(Cl)cc3Cl)no2)c1,2%,x,0%,x,-7%,0%,x,32%[activator]
Cn1nnnc1SCCNCc1ccc(Cl)cc1,17%,6%,2%,-6%,15%,3%,-1.4%,16%
CC(C)OC(=O)c1cccc(C(=O)O)n1,-1%[46.1 µM],3%,3%,-11%,11%,24%,7.9%,-8%
Cc1coc2c1c(C)cc1oc(=O)c(CC(=O)N[C@@H](C)C(=O)O)c(C)c12,x,x,1%,x,1%,0%,x,-17%
CN(C)CCC#CC1(O)c2ccccc2-c2ccccc21,x,x,-1%,x,-9%,-8%,x,9%
COc1ccc(-n2c(SCC(N)=O)nnc2-c2ccc(NS(=O)(=O)c3ccc(C)cc3)cc2)cc1,0%,u,3%,6%,-8%,-9%,-6.6%,0%
CC(C)N(C)C1CCN(S(=O)(=O)c2ccc(-c3ccc(=O)[nH]n3)s2)CC1,-12%[46.1 µM],x,-2%,4%[46.1 µM],-9%,-1%,x,20%
CCCc1nnc(NC(=O)CCN2C(=O)c3ccccc3C2=O)s1,-1%[46.1 µM],10%,3%,-22%,2%,1%,0.5%,16%
COCCc1nn2c(=O)cc(COC(=O)C(c3ccccc3)c3ccccc3)nc2s1,x,u,x,3%[46.1 µM],x,x,-9.2%,u
CCOc1cc(/C=C2\SC(=Nc3ccc(CC)cc3)NC2=O)ccc1OCC(=O)O,4%[46.1 µM],x,3%,u,-7%,-3%,x,11%
Cc1cc(NC(=O)c2ccc3c(c2)OCO3)no1,u,2%,3%,u,-21%,-6%,-3.3%,-9%
COc1cc2c(-c3ccccc3O)nc3c(c(C)nn3-c3ccccc3)c2cc1OC,26%&26%,-2%&0%,8%,3%[46.1 µM],-3%,-17%,-0.9%&-1.7%,u
CCC1(C)Cc2c(sc(NC(=S)NC(=O)c3ccccc3)c2C#N)CO1 (stereo not given),14%,-7%,8%,1%,2%,-30%,-9.2%,-2%
CC1(C)CC2c3cccc(C(=O)O)c3C(=O)N2c2c1ccc1ccccc21 (stereo not given),u,-13%,2%,1%,x,-30%,-4.2%,-11%
COCCn1c(SCC(=O)Nc2ccc3c(c2)OCCO3)nnc1C(C)C,5%[46.1 µM],x,2%,-16%,3%,-1%,x,-9%
SMILES,MARV entry inh,Cruzain inh noDet,NS1 function inh,Lassa entry inh,RE007 growth inh,SARS PLpro yeast,Cruzain Triton,2A StopGo
CN(C)CCN(Cc1ccccc1)S(=O)(=O)c1ccc2c(c1)n(C)c(=O)c(=O)n2C,6%[46.1 µM],x,15%,1%,6%,-3%,x,-16%
O=C(NCc1ccc(OC(F)(F)F)cc1)C1CC2Cn3c(nc4ccccc43)C2N1Cc1ccccc1 (stereo not given),x,x,22%,x,10%,-5%,x,0%
CCC(C)NC(=O)CSc1nnc(-c2ccc(C)cc2)c(-c2ccc(C)cc2)n1 (stereo not given),x,-12%,x,-14%[46.1 µM],x,x,1.3%,-27%
O=C1CN=C(c2ccccc2Cl)c2cc(Cl)ccc2N1Cc1cccc(Cl)c1,x,-4%,x,u,x,x,3.3%,u
Cc1ccc(N2CC(NS(=O)(=O)c3cccs3)CC2=O)cc1C (stereo not given),4%,x,x,1%[46.1 µM],11%,1%,x,14%
CC12CC(NC(=O)N1c1cccc(C(=O)N3CCN(c4ccccc4F)CC3)c1)c1ccccc1O2 (stereo not given),-2%,29%,-10%,-20%,1%,-7%,0.0%,u
Cc1c(CCC(=O)O)c(=O)oc2cc(OCc3cccc(Cl)c3)ccc12,x,x,-23%,x,-9%,-2%,x,20%
O=C(CSc1nnc(CNC(=O)c2cccs2)o1)Nc1ccc(F)cc1F,22%[46.1 µM],x,-2%,24%[46.1 µM],15%,-2%,x,39%[activator]
O=C(NCc1cccnc1)c1cc2nc(-c3ccc4c(c3)OCO4)cc(C(F)(F)F)n2n1,x,x,5%,x,-12%,0%,x,8%
COc1cc(/C=N\NC(=O)c2ccc(-c3ccccc3)cc2)ccc1OCC(N)=O,u,x,1%,u,1%,9%,x,-26%
CNC(C)C#Cc1ccc2oc3cccc(OC)c3c(=O)c2c1 (stereo not given),x,x,14%,x,-8%,-5%,x,40%[activator]
COc1cc(C)ccc1OCCSc1nc2ccc(NC(=O)c3cccs3)cc2s1,u,u,x,-2%[46.1 µM],x,x,-4.0%,-20%
CN1C(=O)CC(N2CCN(CC(=O)N3CCCC3)CC2)C1=O (stereo not given),10%,1%,8%,4%,-2%,0%,3.7%,-14%
CCCCCCOc1ccc(C2C(=O)N(C3CCCCC3)CC(=O)N2CCCC)cc1 (stereo not given),x,21%,x,1%[46.1 µM],x,x,0.3%,u
O=C(N1CCC(n2nc(-c3ccccc3)oc2=O)CC1)C1(c2ccc(Cl)cc2)CC1,x,x,-3%,x,0%,-20%,x,u
COc1ncccc1C(=O)NCC(CC(=O)O)c1ccccc1 (stereo not given),-7%,5%,1%,-8%,-18%,-1%,3.6%,14%
Cc1cc(C)c(/C=N/NC(=O)c2nnn(-c3nonc3N)c2COc2ccc(F)cc2)c(C)c1,-21%,x,3%,-17%,-4%,0%,x,18%
COc1ccc(C2CC(=O)c3cc(-c4nc(-c5ccc(C)cc5)cs4)c(=O)[nH]c3C2)cc1 (stereo not given),-1%[46.1 µM],u,x,-8%[46.1 µM],x,x,-2.7%,-8%
Cc1cc(/C=N/NC(=O)c2ccsc2)c(C)n1-c1cnccn1,x,x,2%,x,10%,-1%,x,57%[activator]
O=C(Nc1nnc(-c2ccccc2Cl)o1)c1ccc(S(=O)(=O)N2CCCCCC2)cc1,u,-11%,-3%,u,u,-14%,1.0%,-25%
CN1C(=O)C(CCC(=O)O)NC1=S (stereo not given),x,x,2%,x,10%,0%,x,-5%
N#CC1=C(N)C2=CCCC[C@H]2[C@H](c2cccc(F)c2)C1(C#N)C#N,u,u,10%,-25%,2%,-22%,-12%,0%
Cc1cc(C)cc(N2C(=O)CS(=O)(=O)C23C(=O)N(C)c2ccccc23)c1 (stereo not given),x,-20%,x,u,x,x,-0.9%,-9%
O=C(NCC1CCCO1)c1cccc(S(=O)(=O)Nc2ccc(SC(F)F)cc2)c1 (stereo not given),0%,x,x,5%,-16%,1%,x,19%
CCOC(=O)C1CCN(S(=O)(=O)c2ccc3c4c(cccc24)C(=O)N3)CC1,0%,-5%,-1%,x,-4%,-6%,-0.5%,-18%
SMILES,MARV entry inh,Cruzain inh noDet,NS1 function inh,Lassa entry inh,RE007 growth inh,SARS PLpro yeast,Cruzain Triton,2A StopGo
C[C@H](NC(=O)c1nc[nH]c1C(=O)NC1CCN(C(=O)OC(C)(C)C)CC1)C(=O)OC(C)(C)C,x,x,1%,x,12%,1%,x,-21%
CCOC(=O)C1CCN(Cc2ccc(O)c3ncccc23)CC1,u,-11%,-6%,-25%,-8%,u,-10%,-26%
O=[N+]([O-])c1cc(-c2nc(-c3ccccc3)no2)ccc1N1CCCC1,-6%[46.1 µM],13%,x,8%[46.1 µM],x,x,-3.2%,-12%
O=C(CSc1nc2ccccc2c(=O)[nH]1)N1CCN(c2ccccc2)CC1,u,x,7%,19%,-5%,6%,x,-19%
COC(=O)C(C)Sc1nc2c(cnn2-c2ccc(C)cc2)c(=O)[nH]1 (stereo not given),8%,-9%,-7%,-20%,13%,4%,4.0%,-12%
O=C(c1ccc2c(c1)OCCO2)N1CCN(c2ccccn2)CC1,x,x,3%,x,12%,2%,x,-3%
COc1ccc(CCNC(=O)c2cc(-c3ccc4c(c3)OCO4)on2)cc1OC,-3%,-22%,4%,29%[14.3 µM],-7%,3%,5.3%,12%
CC1=NN(C(=O)COc2ccccc2)C(O)(c2ccccc2)C1 (stereo not given),u,-4%,10%,6%,8%,15%,1.2%,0%
Cn1c(SCc2ccc(Cl)cc2Cl)nc(C(F)(F)F)cc1=O,2%,u,7%,x,0%,3%,8.6%,-24%
N#CC(=C(O)c1ccc(S(=O)(=O)N(CCCl)CCCl)cc1)c1nc2ccccc2[nH]1,u,x,x,14%[46.1 µM],1%,x,x,19%
CCC(C(=O)Nc1cccc(C(=O)O)c1C)c1ccccc1 (stereo not given),-12%[46.1 µM],x,6%,2%,16%,1%,x,4%
